Screening results (PubChem BioAssay)
RecA intein inh: Mtb RecA intein splicing inhibitors, primary screen, biochemical, fluorescence, HTS; Protein RecA (Mycobacterium tuberculosis (strain ATCC 25618 / H37Rv)), P9WHJ3; cell-free RecA intein splicing; inhibition, %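 (about 9 µM by stock and volumes)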; 290,000 compounds, 0.75% hits; in the data active = inhibition above about 30%; inconclusive = no clear call, values can overlap the other calls;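 also: 0% = vehicle wells and 100% = reference inhibitor control wells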
Target sequence (P9WHJ3 whole entry, looked up): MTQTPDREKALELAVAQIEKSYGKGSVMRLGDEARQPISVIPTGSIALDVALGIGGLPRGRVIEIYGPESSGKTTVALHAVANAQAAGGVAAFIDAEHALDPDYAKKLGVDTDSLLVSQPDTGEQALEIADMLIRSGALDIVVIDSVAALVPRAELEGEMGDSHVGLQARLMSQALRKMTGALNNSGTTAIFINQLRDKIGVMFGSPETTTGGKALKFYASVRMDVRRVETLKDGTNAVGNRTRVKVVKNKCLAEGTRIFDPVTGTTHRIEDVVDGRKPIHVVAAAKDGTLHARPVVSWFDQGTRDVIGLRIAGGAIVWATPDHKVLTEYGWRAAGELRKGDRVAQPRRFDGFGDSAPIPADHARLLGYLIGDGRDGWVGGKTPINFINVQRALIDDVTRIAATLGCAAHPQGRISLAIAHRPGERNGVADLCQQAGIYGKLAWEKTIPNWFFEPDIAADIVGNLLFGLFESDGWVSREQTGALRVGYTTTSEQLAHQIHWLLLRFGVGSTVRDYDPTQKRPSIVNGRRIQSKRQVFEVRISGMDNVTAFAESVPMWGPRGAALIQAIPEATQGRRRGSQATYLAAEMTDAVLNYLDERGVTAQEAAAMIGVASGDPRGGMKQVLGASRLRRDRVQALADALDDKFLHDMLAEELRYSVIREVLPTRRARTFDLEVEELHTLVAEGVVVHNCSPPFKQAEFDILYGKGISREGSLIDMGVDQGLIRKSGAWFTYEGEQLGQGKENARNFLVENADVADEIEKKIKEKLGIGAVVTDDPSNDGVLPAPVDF
YopH PTP inh: YopH tyrosine phosphatase inhibitors, primary screen, biochemical, fluorescence Ex485/Em525; YopH tyrosine phosphatase [Yersinia enterocolitica]; inhibition, %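 (about 10 µM by stock and volumes)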; 140,000 compounds, 0.16% hits;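 active = inhibition of 50% or more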;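 also: controls were vehicle for no effect and minimum signal wells for full effect; inactives centre near -20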
Arbovirus inh: antivirals against arbovirus infection, primary screen, cell-based, full library, 10K replicate subset; arbovirus infection cell-based antiviral screen; inhibition, % at 10 µM; 200,000 compounds, 0.37% hits; AID 1251, 2008;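 active = inhibition from about 30%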;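 also: bluetongue infection of BSR cells; cell survival read as ATP light after 72 h; 0% = infected wells without compound and 100% = uninfected wells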
Mtb betalactam: beta-lactam sensitization of Mtb H37Rv, H37Rv. M. tuberculosis H37Rv growth with meropenem, percent inhibition; hits of this screen are not shown here. inhibition, % at 25 µM. 330,000 compounds, 0.27% hits;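 active = about 74% or more and at least 40 points above the plate without the antibiotic, then above 30% in a dose series; inconclusive = first-round hits that could not be retested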;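 also: growth measured after seven days incubation then overnight dye step; 0% = bacteria only wells and 100% = bacteria with antibiotic; twin plates without the antibiotic show which effects depend on it; some results filed as inactive read as strong as hits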
Mtb growth: M. tuberculosis H37Rv growth inhibitors, H37Rv strain (AID 1626); M. tuberculosis H37Rv growth inhibition; higher % means a stronger effect; inhibition, % at 10 µM; hits with a dose series show IC50 in µM; 220,000 compounds, 0.95% hits;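 active = confirmed in a dose series; inconclusive = inhibition above 80% but not taken into the dose series; inactive = below 80% or under 30% at every dose of the series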;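 also: bacteria incubated seven days before Alamar blue readout; 0% = bacteria only wells and 100% = bacteria with antibiotic wells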
Arbovirus inh repeat: also measured in Arbovirus inh; calls as there; inhibition, %; measured here: 10K subset replicate screen; many hits read low in the repeat;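 first of two repeat runs on a subset; 0% = infected and 100% = uninfected wells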
Starred values were filed as active, the others as inactive; ? = inconclusive; . = not tested or not shown.

SMILES | RecA intein inh | YopH PTP inh | Arbovirus inh | Mtb betalactam | Mtb growth | others
O=C(Cn1c(=O)[nH]c2ccsc2c1=O)N1CCN(c2ccc(F)cc2)CC1 | -0.8 | -3.7 | 10.1 | -1.7 | -2.8%
O=C(CNC(=O)c1ccccc1)NCC(=O)OCC(=O)c1ccc([N+](=O)[O-])cc1 | -2.8 | 12.1 | -1.3 | -3.6 | 1.6%
COc1ccc(OC)c(C(=O)c2c(C)oc3cc(Br)c(O)c(CN(C)C)c23)c1 | 1.5 | . | . | -4.8 | .
COc1ccc(N(CC(=O)Nc2cccc(C(=O)O)c2)S(=O)(=O)c2c(C)noc2C)cc1 | . | -4.8 | -0.9 | 8.3 | 0.8%
Cc1nnc(SCC(=O)Nc2ccc(S(=O)(=O)N3CCCC3)cc2)n1N | -1.6 | -45.2 | -1.8 | -9.2 | 0.5%
CC1CCCC(NC(=O)CSc2ncccc2C(=O)O)C1C (centres undefined) | 1.7 | -28.0 | 5.3 | -3.2 | 2.5%
O=C(NCc1cccs1)c1cccc(Nc2nc3ccc(Br)cc3[nH]2)c1 | 8.5 | -2.9 | -19.1 | -9.3 | 7.8%
O=C(Nc1cccc(-c2nc3cc(Cl)ccc3o2)c1)C1CCCO1 (centres undefined) | 1.1 | -21.8 | 7.5 | -2.2 | -2.6%
COc1cc(/C=C(\CC(=O)O)c2nc3ccccc3s2)cc(OC)c1O | -23.5 | . | 1.9 | 4.1 | -9.9%
Cc1sc2nc(CN3CCCC3)nc(N3CCC(C(N)=O)CC3)c2c1C | 0.5 | 5.2 | 11.1 | 0.7 | 9.1%
COc1ccccc1OCCNC(=O)Cc1ccc(S(=O)(=O)N2CCOCC2)s1 | -0.2 | . | . | -13.1 | .
CCCNC(=S)NC1CC2CCC(C1)N2Cc1ccccc1 (centres undefined) | -1.3 | -30.0 | -7.2 | -5.5 | -1.7%
COC(=O)CN(c1cccc(C(C)=O)c1)S(C)(=O)=O | 0.5 | -53.3 | -1.9 | 3.5 | 0.3%
COC(=O)/C=C1/N/C(=N\c2nc(C)cc(C)n2)N(c2ccccc2)C1=O | -0.2 | -10.8 | 3.4 | -3.0 | -4.9%
CC1(C)Cc2noc(N)c2C(C)(C)N1O | -3.8 | -21.0 | 2.8 | 4.8 | 1.9%
COc1ccc(N(CC(=O)N2CCC(Cc3ccccc3)CC2)S(C)(=O)=O)cc1 | 9.1 | . | -2.2 | -4.9 | 1.2%
CCCOc1c(Br)cc(C(N)=O)cc1OCC | 5.8 | . | -6.1 | 5.5 | 4.6%
Cc1ccc(OCCSc2nnc(C)c(=O)n2N)cc1 | -0.4 | . | 0.9 | 83.2 | -1.3%
COc1cc2nc(C3CCC3)nc(N3CCN(c4ccccn4)CC3)c2cc1OC | 2.4 | -8.8 | -24.7 | 93.9 | ?
CCCn1c(NC(=O)CSCC(=O)Nc2cc(C)on2)nc2ccccc21 | -0.4 | . | . | 49.2 | .
COc1ccccc1C(=O)NC(=S)Nc1ccc(NC(=O)c2cccs2)cc1 | 0.7 | -23.7 | -13.5 | 7.1 | 6.7%
O=Cc1ccc(O)cc1O | -4.6 | . | . | 8.4 | .
COc1ccc(-c2cc3nc4n(c(=O)c3s2)CCC4)cc1 | -2.4 | -7.6 | -1.5 | 4.2 | -3.3%
O=C(CC(Cc1ccccc1)C(=O)O)Nc1ccccc1 (centres undefined) | 0.7 | . | . | 0.5 | .
CC(C)(C)C(=O)NC1(C(F)(F)F)NC(=O)N(Cc2ccccc2)C1=O (centres undefined) | 2.3 | . | . | -4.0 | 0.6%
CCC(=O)n1nc(-c2ccc(OC)cc2)nc1SC | 6.9 | -19.1 | 6.4 | -4.6 | 2.2%
N#Cc1c(-c2ccc(Cl)cc2)ccn2nc(CCC(=O)O)nc12 | -4.1 | -23.4 | 7.0 | -9.7 | -2.6%
O=C(CCC(=O)OCC(F)(F)C(F)F)Nc1ccccc1F | 0.7 | . | 10.8 | 0.1 | -8.8%
COc1cccc(OC)c1C(=O)Nc1nnc(-c2cccs2)s1 | -4.1 | . | 1.3 | 3.5 | 3.3%
O=C(CN1CCSCC1)c1c[nH]c2ccccc12 | 0.9 | -5.5 | 0.2 | -13.4 | 0.2%
CC1CCC(C(=O)NC(C(=O)NCc2cccnc2)C(C)C)CC1 (centres undefined) | -2.0 | -13.1 | 9.0 | 6.3 | -11.4%
O=C(Cn1c(=O)cnc2ccccc21)N1CCN(S(=O)(=O)c2ccc(F)cc2)CC1 | -2.0 | . | . | 1.4 | .
COc1cccc(N(Cc2nnc3n2CCCCC3)C(=O)Nc2ccccc2)c1 | -0.9 | . | 17.4 | -5.9 | 2.4%
COc1ccc(NC2CCCN(C(=O)c3cccc(N4CCNC4=O)c3)C2)cc1 (centres undefined) | -2.1 | . | . | -4.3 | .
O=C(c1ccccc1)N1CCN(CC(O)COc2cccc3ccccc23)CC1 (centres undefined) | 2.1 | . | . | -5.8 | .
N#Cc1cc(-c2ccccc2)cnc1Sc1ccccc1 | 2.1 | -35.0 | 0.3 | . | -0.6%
CC1CCc2c(sc(NC(=O)COC(=O)c3ccc(NC(=O)CC#N)cc3)c2C#N)C1 (centres undefined) | 1.0 | . | . | -10.8 | .
CCC(C)n1c(-c2cc(OC)c(OC)c(OC)c2)nc2nc3ccccc3nc21 (centres undefined) | 5.9 | -26.8 | 6.4 | -18.4 | .
O=S(=O)(NCc1csc(-c2cccs2)n1)c1cccs1 | 3.1 | . | . | 2.4 | 2.8%
COc1ccccc1NC(=O)N1C[C@@H]2C[C@@H](C1)c1cccc(=O)n1C2 | 0.1 | . | . | -0.2 | .
O=C(CSc1cccc2cccnc12)Nc1cc(C(=O)O)cc(C(=O)O)c1 | -3.9 | . | . | -5.0 | .
O=C1N[C@@H](Cc2ccccc2)C(=O)N2[C@H]1C[C@H]1c3ccccc3N(OOSc3ccccc3)[C@H]12 | 1.7 | . | . | -6.8 | -2.0%
CCOC(=O)CCNC(=O)N1CCCC(C(=O)c2cccc(OC(C)C)c2)C1 (centres undefined) | -1.0 | . | . | -1.5 | .
N#Cc1ccc(NC(=O)Cn2cnc(S(=O)(=O)N3CCCC3)c2)cc1 | -1.6 | . | . | 0.3 | .
S=C(NCCc1ccccc1)Nc1ccc(Br)cn1 | 4.2 | . | 0.9 | 2.8 | 12.6%
Cc1ccc(/C=N/Nc2ccccn2)s1 | 1.0 | . | . | 3.3 | .
CCCC(=O)NC(=S)Nc1ccc(C(C)=O)cc1 | 1.4 | -30.8 | 3.3 | -4.6 | -1.9%
Cc1ccc(NC(=O)c2sc3ncn(CC(=O)N4CCOCC4)c(=O)c3c2C)c(Br)c1 | 2.0 | . | . | 6.2 | .
Cc1ccsc1C(=O)Nc1ccc(O)c(-c2nc3ccccc3s2)c1 | -125.0 | . | 3.1 | 3.1 | -4.2%
Cc1ccc(NC(=O)CS(=O)CC(=O)NCCCc2ccccc2)cc1Cl (centres undefined) | . | -32.4 | -1.4 | -11.9 | 58.6%
O=C(CCS(=O)(=O)c1cccs1)NC1CCCCCC1 | 0.3 | -48.0 | -1.2 | -8.8 | -8.7% | Arbovirus inh repeat=0.8
O=C(O)/C(=N/NC(=O)c1ccc(Cl)cc1)c1ccccc1 | 4.6 | . | . | -3.2 | -4.2%
CCOCCCNC(=S)N1CCC(C(=O)c2ccc3c(c2)OCCO3)CC1 | -0.2 | . | 0.2 | 1.8 | 0.3%
CSc1ccc(S(=O)(=O)Nc2ccc(OCC(=O)N3CCOCC3)cc2)cc1 | -4.2 | . | -0.4 | 2.9 | -3.9%
OCCC1CN(Cc2cn[nH]c2C2CCCCC2)CCN1Cc1ccccc1 (centres undefined) | 0.2 | . | 4.7 | 7.2 | 0.4%
Clc1ccc(-c2nnc(NC3=NCCCCC3)o2)cc1 | 1.3 | 2.0 | 3.2 | -9.0 | -12.1%
CCNC(=O)Nc1cc(OC)c(OC)cc1C(=O)O | -0.5 | . | . | 2.1 | 0.4%
Cc1cccc2sc(N3CCN(C(=O)c4cccs4)CC3)nc12 | -1.2 | . | . | -3.5 | .
CC(/C=C/c1ccco1)=N\NC(=O)c1cccc(Cl)c1 | 3.6 | -18.7 | -20.6 | 100.1 | ?
CCn1c(NN=O)nc2ccccc21 | 7.3 | . | -22.2 | 1.2 | 3.6%

Ordered by SMILES length (rising): 11 of the compounds above.
SMILES | RecA intein inh | YopH PTP inh | Arbovirus inh | Mtb betalactam | Mtb growth | others
CC1(C)Cc2noc(N)c2C(C)(C)N1O | -3.8 | -21.0 | 2.8 | 4.8 | 1.9%
Cc1ccc(OCCSc2nnc(C)c(=O)n2N)cc1 | -0.4 | . | 0.9 | 83.2 | -1.3%
O=C(CCC(=O)OCC(F)(F)C(F)F)Nc1ccccc1F | 0.7 | . | 10.8 | 0.1 | -8.8%
COc1ccc(-c2cc3nc4n(c(=O)c3s2)CCC4)cc1 | -2.4 | -7.6 | -1.5 | 4.2 | -3.3%
O=C(Nc1cccc(-c2nc3cc(Cl)ccc3o2)c1)C1CCCO1 (centres undefined) | 1.1 | -21.8 | 7.5 | -2.2 | -2.6%
COc1cc(/C=C(\CC(=O)O)c2nc3ccccc3s2)cc(OC)c1O | -23.5 | . | 1.9 | 4.1 | -9.9%
O=C(NCc1cccs1)c1cccc(Nc2nc3ccc(Br)cc3[nH]2)c1 | 8.5 | -2.9 | -19.1 | -9.3 | 7.8%
COc1ccccc1OCCNC(=O)Cc1ccc(S(=O)(=O)N2CCOCC2)s1 | -0.2 | . | . | -13.1 | .
CSc1ccc(S(=O)(=O)Nc2ccc(OCC(=O)N3CCOCC3)cc2)cc1 | -4.2 | . | -0.4 | 2.9 | -3.9%
COc1ccc(N(CC(=O)N2CCC(Cc3ccccc3)CC2)S(C)(=O)=O)cc1 | 9.1 | . | -2.2 | -4.9 | 1.2%
O=C(Cn1c(=O)cnc2ccccc21)N1CCN(S(=O)(=O)c2ccc(F)cc2)CC1 | -2.0 | . | . | 1.4 | .

(further entries)
SMILES | RecA intein inh | YopH PTP inh | Arbovirus inh | Mtb betalactam | Mtb growth | others
ONC(=Nc1ccccc1)c1ccccc1Cl | 16.5 | -38.2 | -6.0 | -20.5 | -2.2%
O=C(CCC(=O)c1cccs1)Nc1nnc(C2CC2)s1 | -0.1 | -48.4 | -3.3 | -20.2 | 0.4%
CN(C)c1nc2ccc(OCCN3CCCCC3)cc2s1 | -3.7 | -36.6 | -4.1 | -6.2 | -5.3% | Arbovirus inh repeat=-4.6
O=C(Cc1ccccc1)NC(=S)Nc1ccc2oc(-c3ccccc3)nc2c1 | -0.1 | -12.6 | -9.0 | 5.9 | 6.6%
COc1ccc(O)c(C(=O)c2cnc3nc4ccccc4n3c2)c1 | 0.9 | -12.4 | -5.5 | 9.3 | -4.0%
Cc1cc(C)n2ncc(C(=O)Nc3cccc(O)c3)c2n1 | -0.6 | . | -6.5 | -6.3 | -5.6%
CCn1c(C(O)c2cc(OC)c(OC)c(OC)c2)nc2ccccc21 (centres undefined) | -0.7 | . | . | -8.8 | .
COC(=O)c1cccc(C(=O)Nc2ccc(C)cc2Br)n1 | 3.3 | -51.4 | 8.3 | 80.4 | .
CCOC(=O)CNC(=O)N1CCCC(C(=O)c2ccccc2SC)C1 (centres undefined) | -2.0 | . | 0.0 | -11.8 | -0.2%
CCC(CC)c1nnc(NC(=O)C2CC(=O)N(c3ccc4c(c3)OCCO4)C2)s1 (centres undefined) | -2.8 | -38.5 | 8.3 | -4.5 | -16.8%
CC(=O)Nc1cccc(/C(C)=N/NC(=O)c2ccc(Cl)cc2Cl)c1 | -1.3 | . | 3.5 | -9.1 | -7.4%
CC(C)(C)c1ccc(COC(=O)Nc2ccc(F)cc2)cc1 | -0.1 | -17.7 | -1.6 | 6.4 | 6.7%
Cc1ccc2c([N+](=O)[O-])c(C)ccc2n1 | -7.6 | -14.4 | 8.6 | -13.0 | -16.2%
CCOC(=O)C(C)Oc1ccc(OCc2ccccc2)cc1 (centres undefined) | 5.3 | . | -7.1 | 99.6 | ?
CCOC(=O)C1CCCN(C(=O)COC(=O)c2ccc(C#N)cc2)C1 (centres undefined) | . | . | 6.4 | -3.3 | -1.2%
C/C(=N\N=C(N)N)c1ccc(C)c(C)c1 | 0.9 | . | . | -10.8 | -3.2%
COC(=O)c1ccccc1-n1cccc1C(=O)NP(=O)(N1CCOCC1)N1CCOCC1 | 2.0 | . | 11.2 | -1.3 | -12.4%
COc1ccc(NC(=O)c2oc3ccccc3c2NC(=O)C2CCCO2)cc1OC (centres undefined) | -3.2 | . | -2.7 | -0.1 | 7.9%

This is a subset; count on the stated rates, not on these rows.
